GLA inh pH 4.5: blocks human alpha-galactosidase A at pH 4.5; 230,000 tested, under 10 active; activity change, negative = inhibition, % at 105 µM; P06280; purified enzyme, 4-MU-alpha-Gal fluorescence, pH 4.5; AID 1467; inconclusive = small, poorly fitted or top-dose-only inhibition, or a rising curve; inactive = flat fitted curve, though single readings scatter; no compound was filed as active;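 further: 0% = full activity with enzyme and -100% = basal without enzyme; dose as in the result columns while the protocol names 77 µM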
Target sequence (P06280 whole entry, looked up): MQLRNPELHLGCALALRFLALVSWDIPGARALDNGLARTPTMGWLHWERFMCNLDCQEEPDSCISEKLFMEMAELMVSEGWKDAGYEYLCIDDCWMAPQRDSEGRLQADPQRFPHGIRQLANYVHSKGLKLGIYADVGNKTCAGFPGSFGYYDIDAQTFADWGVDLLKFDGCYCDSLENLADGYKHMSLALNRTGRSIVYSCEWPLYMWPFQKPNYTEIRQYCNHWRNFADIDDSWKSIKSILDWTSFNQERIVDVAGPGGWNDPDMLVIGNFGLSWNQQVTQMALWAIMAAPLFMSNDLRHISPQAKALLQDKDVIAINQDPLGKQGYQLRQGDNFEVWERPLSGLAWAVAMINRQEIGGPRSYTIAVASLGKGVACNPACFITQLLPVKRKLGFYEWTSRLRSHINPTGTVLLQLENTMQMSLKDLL
Rango-impB inh: Rango-importin beta binding inhibition | Q14974 | Rango CFP/YFP FRET sensor + importin beta, 45 min | AID 540263 | hit rate 0.031% among 340,000 | Potency, µM (titrated, usually from 92.2 µM), without a hit: top-dose inhibition of complex formation; active = rising FRET ratio curve, often small or poorly fitted; inconclusive = mostly compound fluorescence or quenching in the first reads; inactive = flat curves in all reads;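 further: potency means the concentration at half of the fitted maximal effect; 0% = DMSO wells and 100% = buffer wells lacking importin beta; nearly all actives have a fitted effect of over 15% in size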
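FRET biosensor Rango (snurportin 1 IBB between N-terminal EYFP and C-terminal Cerulean), 50 nM in PBS/1 mM DTT/0.02% Tween-20/0.1% BSA, preincubated 5 min RT with compound; 0.125 microM importin beta added, 45 min RT, CFP/YFP FRET ratio read.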
Rango release inh: inhibition of RanGTP-driven Rango-importin beta dissociation; O95149+P62826; Biochemical FRET Rango-importin beta, RanGTP-induced dissociation; Potency, µM (highest dose often 46.1 µM), inactives show at the highest dose activity change, negative = inhibition; hit rate 0.071% among 340,000; AID 540253; active means falling FRET ratio curve, often poorly fitted, with flat reads before Ran was added; inconclusive means other falling curves, or compound fluorescence or quenching; inactive means flat or rising ratio curve;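 further: potency means the concentration at half of the fitted maximal effect; % of control where 0% means no effect; nearly all actives have a fitted effect of over 45% in size; -100% = wells without RanGTP and RCC1; the record marks most hits as doubtful in a second field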
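Compounds preincubate 5 min with complex of recombinant Rango and importin beta in PBS with 1 mM DTT. Ran (0.6 uM) loaded with 2 mM GTP plus 0.2 uM RCC1 starts dissociation; FRET is recorded 45 min later.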
miR-21 FLuc: miR-21 reporter, rising signal; HeLa miR-21 FLuc reporter, luciferase, 48 h; Potency, µM (series often up to 38.3 µM), inactives show at the top dose reporter change, positive = more light; 340,000 tested, under 10 active; active = well fitted rising curve with a large enough effect; inconclusive = small, poorly fitted or top-dose-only effect; inactive = no such curve, though single readings can be large or run the other way;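 further: % of control where 0% means no effect; miR-21 action dims this reporter so a rising signal means less miR-21 action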
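Compounds were titrated across several concentrations (up to approximately 40 uM) and incubated 48 hours with HeLa miR-21-FLuc reporter cells (miR-21 target sequence downstream of FLuc, endogenous miR-21). Readout was firefly luciferase luminescence after lytic detection reagent.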
Numbers without * were called inactive; u = inconclusive; x = no result given; & = joins results of further samples. Some of the compounds tested; the hit share may differ from the screen's.

SMILES | GLA inh pH 4.5 | Rango-impB inh | Rango release inh | miR-21 FLuc
COc1ccc(C2C(C(C)=O)=C(C)Nc3ncnn32)cc1[N+](=O)[O-] (configuration not stated) | x | -6.4% | 16% | -8%
C/C(=N\NC(=O)CCC(=O)Nc1ccc(C)c(C)c1)C1CC1 | x | 3.1% | 1% | 2%
Nc1ccc(C(=O)CC(=O)Nc2ccc(Cl)cc2)cc1 | x | 0.7% | -14% | -16%
CC(=O)c1ccc(N2CCN(C(=S)Nc3cccc(F)c3)CC2)cc1 | -4 | -0.6% | -18% | -12%
O=C(O)/C=C\C(=O)Nc1ccccc1C#Cc1ccc(Br)cc1 | 10 | 2.6% | 9% | -38%
COCCCNC(=S)Nc1cccc(SC)c1 | 3 | 0.2% | -15% | -10%
Brc1cccc(-c2cnc3n2CCCCC3)c1 | -7 | 1.1% | 2% | 13%
Cc1ccc(N2CC(C(=O)Nc3ccc4c(c3)OCCO4)CC2=O)cc1C (configuration not stated) | x | 1.0% | 0% | -1%
CCOc1ccccc1NC(=O)C(Sc1nnc2ccccn12)c1ccccc1 (configuration not stated) | -1 | -0.4% | 7% | -2%
COc1ccc(Cl)cc1NC(=O)NN1CCN(C)CC1 | x | -0.2% | -8% | -2%
CC(C)CNC(=O)C(=O)NCC1CCCN1S(=O)(=O)c1cccs1 (configuration not stated) | x | 2.1% | -7% | x
Cc1cc(C)cc(NCCC#N)c1 | 8&-4 | -0.5% | 1% | -1%&0%
COc1ccc(S(=O)(=O)N2CCN(c3ccccn3)CC2)cc1OC | 5 | 13% | 2% | -11%
CCC/C(O)=N\S(=O)(=O)c1ccc(N=NN(C)C)cc1 | -6 | -3.1% | -3% | 1%
CC/C(C)=N\Nc1nc(-c2cc3cc(OC)ccc3oc2=O)cs1 | 0 | u | u | 6%
C/C(CS(=O)(=O)c1ccc(Cl)cc1)=N/NC(N)=S | -3 | -2.6% | 9% | 3%
Cc1sc(NC(=O)C2C3C=CC(C3)C2C(=O)O)c(C(N)=O)c1-c1ccc(C(C)C)cc1 (configuration not stated) | 3 | -3.3% | -22% | -6%
CC1CCCCN1C(=O)/C=C/c1ccccc1[N+](=O)[O-] (configuration not stated) | 6 | -5.1% | 2% | -23%
COc1cc(Oc2ccccc2)nc(N)n1 | x | 0.6% | -11% | x
COc1ccc(-n2c(SCC(=O)Nc3nccs3)nc3c(c2=O)SC(C)C3)cc1 (configuration not stated) | 2 | -1.0% | 2% | 2%
O=[N+]([O-])c1cc(F)cc(F)c1Nc1ccc(F)cc1 | x | -0.1% | 5% | x
Cn1c(=O)n(C)c2cc(S(=O)(=O)NCC(=O)O)ccc21 | -6 | -2.1% | -6% | -1%
Cc1nn(Cc2cccc(C(=O)Nn3cc([N+](=O)[O-])cn3)c2)c(C)c1[N+](=O)[O-] | 0 | -1.3% | 1% | -6%
CS(=O)(=O)c1ccccc1-c1nc(-c2ccc(C(F)(F)F)cc2)no1 | 0 | 4.9% | -10% | -21%
COc1ccc2ccc(=O)oc2c1CC=C(C)C | -9&-9 | -2.4% | 12% | -19%
CCCOc1ccc(Br)cc1/C=N/NC(=O)c1cc(OC)c(OC)c(OC)c1 | 0 | -0.1% | 4% | -4%
O=C1C2C3C=CC(C3)C2C(=O)N1/N=C/c1cn(Cc2ccc(F)cc2)c2ccccc12 (configuration not stated) | 0 | 0.0% | 27% | -8%
Cc1cc(C)n(C(=O)CNC(=O)c2ccccc2Br)n1 | x | -2.4% | 3% | -4%
COCCCNC(=O)c1ccc2c(c1)OCO2 | -1 | -1.9% | -15% | -20%
CSc1nnc(-c2cccs2)n1-c1ccccc1 | 0 | -1.7% | 7% | 0%
O=C(NN=Cc1cc(Cl)ccc1[N+](=O)[O-])c1ccco1 | x | -1.2% | -9% | x
O=C(O)c1cccc(CSc2nc(-c3ccc(Cl)cc3)cc(C(F)(F)F)n2)c1 | -5 | 4.6% | 3% | -11%
Cc1ccccc1CN1CCNC1=O | -1 | 0.9% | -6% | -6%
O=c1c2ccccc2ncn1-c1ccc([N+](=O)[O-])cc1Cl | x | -2.3% | -14% | -2%
O=C(O)c1ccccc1C(=O)Nc1ccccn1 | 7 | 1.4% | 0% | -10%
CCCc1nc2c(C)cc(C)cc2c(N)c1CC | -6 | -1.1% | 1% | 7%
Cn1c(=O)c2c(nc3n2CC(O)CN3c2ccc(O)cc2)n(C)c1=O (configuration not stated) | x | -1.4% | 0% | 10%
C=C(C)C1CC=C(C)/C(=N/Nc2ccccc2[N+](=O)[O-])C1 (configuration not stated) | 7 | 4.3% | 32% | -18%
COc1ccc(NC(=O)N2CCN(C(=O)c3ccco3)CC2)c(OC)c1 | x | -3.4% | 6% | 1%
COCCn1c(SCC(=O)Nc2ccc(NC(C)=O)cc2)nc2ccccc2c1=O | x | -3.8% | 0% | 8%
Cc1cc(NS(=O)(=O)c2ccc(NC(=O)/C=C/c3cccc(Cl)c3)cc2)no1 | x | -0.3% | 14% | -8%
NC1(C#Cc2ccc3c(=O)c4ccccc4sc3c2)CCCCC1 | x | u | u | x
Cc1c(-n2c(SCC(=O)NC(C)C)nc3ccccc3c2=O)c(=O)n(-c2ccccc2)n1C | 6 | 1.4% | 8% | -2%
Cc1ccc(C(=O)NC(=S)Nc2ccc(CN3CCOCC3)cc2)cc1 | x | 0.1% | -4% | -15%
Cc1cc(-c2n[nH]c(=S)n2-c2ccc(C)c(C)c2)no1 | 11 | 0.1% | -4% | -19%
CC(=O)N1CCN(c2ccc(NC(=O)c3ccc(Cl)c(Cl)c3)cc2)CC1 | x | -0.2% | -1% | 1%
O=C(CSc1nc2ccccc2c(=O)[nH]1)N1CCN(c2ccccc2)CC1 | x | -0.1% | -5% | -3%
CCOC(=O)C1CCN(Cc2ccc(O)c3ncccc23)CC1 | -10 | -2.5% | 1% | u
CC1=NN(C(=O)COc2ccccc2)C(O)(c2ccccc2)C1 (configuration not stated) | -3 | -4.0% | 15% | -11%
COc1ccc(CCNC(=O)c2cc(-c3ccc4c(c3)OCO4)on2)cc1OC | -4 | -1.8% | 2% | 0%
O=C(c1ccc2c(c1)OCCO2)N1CCN(c2ccccn2)CC1 | x | 6.3% | 1% | -13%
COC(=O)C(C)Sc1nc2c(cnn2-c2ccc(C)cc2)c(=O)[nH]1 (configuration not stated) | 5 | 4.5% | -5% | -3%
COc1ccc(CCN(C(=O)C(F)(F)F)C(C(=O)NC2CCCCC2)c2ccc(C)s2)cc1OC (configuration not stated) | 1 | 5.7% | 16% | -10%
CCC(C(=O)Nc1cccc(C(=O)O)c1C)c1ccccc1 (configuration not stated) | -22 | -2.9% | -4% | -1%
Cn1c(SCc2ccc(Cl)cc2Cl)nc(C(F)(F)F)cc1=O | -16 | 4.4% | -7% | 0%
Cc1cc(C)c(/C=N/NC(=O)c2nnn(-c3nonc3N)c2COc2ccc(F)cc2)c(C)c1 | -4 | 2.0% | 21% | 7%
O=C(N1CCC(n2nc(-c3ccccc3)oc2=O)CC1)C1(c2ccc(Cl)cc2)CC1 | x | -2.5% | -8% | 6%
CN1C(=O)C(CCC(=O)O)NC1=S (configuration not stated) | 4 | 4.1% | 0% | -1%
O=C(Nc1nnc(-c2ccccc2Cl)o1)c1ccc(S(=O)(=O)N2CCCCCC2)cc1 | -3 | 6.1% | 5% | -1%
Cc1cc(/C=N/NC(=O)c2ccsc2)c(C)n1-c1cnccn1 | 9 | -0.2% | -3% | -51%

Continued:
SMILES | GLA inh pH 4.5 | Rango-impB inh | Rango release inh | miR-21 FLuc
O=C(NCC1CCCO1)c1cccc(S(=O)(=O)Nc2ccc(SC(F)F)cc2)c1 (configuration not stated) | x | -4.2% | 0% | x
NC(=O)c1ncn([C@@H]2O[C@H](CNC(=O)[C@H](N)CSCc3ccccc3)[C@@H](O)[C@H]2O)n1 | x | 0.2% | 5% | x
Cc1cc(C)cc(C(=O)OCC(=O)N2CCCCCC2)c1 | x | -0.6% | 2% | x
N#CC1=C(N)C2=CCCC[C@H]2[C@H](c2cccc(F)c2)C1(C#N)C#N | -27 | u | u | 2%
C[C@H](NC(=O)c1nc[nH]c1C(=O)NC1CCN(C(=O)OC(C)(C)C)CC1)C(=O)OC(C)(C)C | 0 | -3.6% | -20% | 2%
CCOC(=O)C1CCN(S(=O)(=O)c2ccc3c4c(cccc24)C(=O)N3)CC1 | 14 | u | u | -17%
COc1ccccc1NC(=S)N1CCC(C(=O)c2ccc(F)cc2)CC1 | 5 | 0.5% | u | 0%
O=C(CSc1nnc(CNC(=O)c2cccs2)o1)Nc1ccc(F)cc1F | x | -3.9% | 2% | 0%
Cc1c(CCC(=O)O)c(=O)oc2cc(OCc3cccc(Cl)c3)ccc12 | x | 0.0% | 14% | -19%
CNC(C)C#Cc1ccc2oc3cccc(OC)c3c(=O)c2c1 (configuration not stated) | x | -5.6% | 12% | -45%
COc1cc(/C=N\NC(=O)c2ccc(-c3ccccc3)cc2)ccc1OCC(N)=O | x | 4.0% | 5% | 0%
O=C(NCc1cccnc1)c1cc2nc(-c3ccc4c(c3)OCO4)cc(C(F)(F)F)n2n1 | -12 | u | -18% | -2%
CN1C(=O)CC(N2CCN(CC(=O)N3CCCC3)CC2)C1=O (configuration not stated) | 0 | -0.3% | 0% | -2%
COc1cc2c(-c3ccccc3O)nc3c(c(C)nn3-c3ccccc3)c2cc1OC | 4 | 6.3% | -12% | -7%&-8%
Cc1cc(NC(=O)c2ccc3c(c2)OCO3)no1 | -14 | 1.6% | -11% | -7%

At a glance, 6 of the compounds above:
SMILES | GLA inh pH 4.5 | Rango-impB inh | Rango release inh | miR-21 FLuc
O=C(NCC1CCCO1)c1cccc(S(=O)(=O)Nc2ccc(SC(F)F)cc2)c1 (configuration not stated) | x | -4.2% | 0% | x
NC(=O)c1ncn([C@@H]2O[C@H](CNC(=O)[C@H](N)CSCc3ccccc3)[C@@H](O)[C@H]2O)n1 | x | 0.2% | 5% | x
Cc1cc(C)cc(C(=O)OCC(=O)N2CCCCCC2)c1 | x | -0.6% | 2% | x
N#CC1=C(N)C2=CCCC[C@H]2[C@H](c2cccc(F)c2)C1(C#N)C#N | -27 | u | u | 2%
C[C@H](NC(=O)c1nc[nH]c1C(=O)NC1CCN(C(=O)OC(C)(C)C)CC1)C(=O)OC(C)(C)C | 0 | -3.6% | -20% | 2%
CCOC(=O)C1CCN(S(=O)(=O)c2ccc3c4c(cccc24)C(=O)N3)CC1 | 14 | u | u | -17%

(next part)
SMILES | GLA inh pH 4.5 | Rango-impB inh | Rango release inh | miR-21 FLuc
CCOc1cc(/C=C2\SC(=Nc3ccc(CC)cc3)NC2=O)ccc1OCC(=O)O | x | u | u | 1%
CCC1(C)Cc2c(sc(NC(=S)NC(=O)c3ccccc3)c2C#N)CO1 (configuration not stated) | 3 | -1.5% | -9% | -24%
O=C(NCc1ccc(OC(F)(F)F)cc1)C1CC2Cn3c(nc4ccccc43)C2N1Cc1ccccc1 (configuration not stated) | x | -2.2% | -11% | 7%
CN(C)CCN(Cc1ccccc1)S(=O)(=O)c1ccc2c(c1)n(C)c(=O)c(=O)n2C | 0 | 1.6% | 6% | -3%
COCCn1c(SCC(=O)Nc2ccc3c(c2)OCCO3)nnc1C(C)C | x | -0.5% | 3% | 5%
CC1(C)CC2c3cccc(C(=O)O)c3C(=O)N2c2c1ccc1ccccc21 (configuration not stated) | -12 | -2.0% | 1% | 0%
CC12CC(NC(=O)N1c1cccc(C(=O)N3CCN(c4ccccc4F)CC3)c1)c1ccccc1O2 (configuration not stated) | -5 | 0.8% | -5% | 17%
Cc1ccc(N2CC(NS(=O)(=O)c3cccs3)CC2=O)cc1C (configuration not stated) | x | -0.1% | -7% | x
COc1cc2oc3cc(C#Cc4ccc(N)cc4)ccc3c(=O)c2cc1OC | x | u | u | x
CCOC(=O)c1ccc(NC(=S)NN)cc1 | 3 | 8.1% | -1% | -15%
COc1ccc(Nc2nc(N)nc(CSc3nccn3C)n2)cc1 | 6 | 0.3% | 45% | -37%
COc1cccc(-c2nc(COc3ccc(Cl)cc3Cl)no2)c1 | -4 | -0.3% | 1% | -11%
O=C(Nc1ccccc1)C1=C[C@@H](C2CCCCC2)C[C@@H](OCc2ccc(CO)cc2)O1 | -7 | -1.7% | -2% | 8%
O=C(Nc1ccc(Cl)cc1)Nc1ccccc1CC[N+](=O)[O-] | -1 | 0.2% | 7% | -1%

High-throughput results (PubChem)
